# VDR inhibitor: inhibitors of human vitamin D receptor; VDR-SRC2-3 peptide fluorescence polarization, 2 h; 400,000 compounds, 0.93% hits; Potency, µM, for the others: max response, negative = inhibition, actives largely listed as inhibitors; active = well fitted inhibition curve with a large enough effect; inconclusive = small, poorly fitted or top-dose-only effect, or another doubt; inactive = no such curve, though single readings can be large or run the other way; also: series mostly up to about 120 µM
# Target sequence (P11473 whole entry, looked up): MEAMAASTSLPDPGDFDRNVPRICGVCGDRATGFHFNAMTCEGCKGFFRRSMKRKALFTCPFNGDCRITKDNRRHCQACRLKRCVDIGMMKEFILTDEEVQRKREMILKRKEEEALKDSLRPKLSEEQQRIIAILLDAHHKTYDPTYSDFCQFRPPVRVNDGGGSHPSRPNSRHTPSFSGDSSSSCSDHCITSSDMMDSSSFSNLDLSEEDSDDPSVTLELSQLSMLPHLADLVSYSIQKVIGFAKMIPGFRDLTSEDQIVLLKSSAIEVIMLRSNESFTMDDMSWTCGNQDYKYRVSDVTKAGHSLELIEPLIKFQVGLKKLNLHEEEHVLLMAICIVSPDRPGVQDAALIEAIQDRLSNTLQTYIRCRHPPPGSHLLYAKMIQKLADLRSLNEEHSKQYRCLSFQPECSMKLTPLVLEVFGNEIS
#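 Fluorescence polarization assay of small-molecule disruption of VDR binding to coregulator peptide SRC2-3. Compounds and controls pin-transferred, then read after 2 h incubation at ambient room temperature.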
# An asterisk follows results filed as active; u = inconclusive; & = joins results of further samples. % is scaled to controls: 0 for no effect and ±100 for the full control effect; potency is read from the fitted curve at half-maximal effect. Only part of the results is shown, so the mix of outcomes need not match the whole.
cpd	smiles	VDR inhibitor
1	CC(C(N)=O)N1C(=O)c2cccc3cccc1c23 (centres undefined)	-7%
2	CC(NC(=O)c1cc2c(s1)CS(=O)(=O)C2)c1ccccc1 (centres undefined)	-21%
3	COC(=O)C(C)Oc1ccc(-c2nccc(-c3ccccn3)n2)cc1 (centres undefined)	-1%
4	Cc1c(Cl)cccc1NC(=O)CN1CCC(NC(=O)C2CCCCC2)CC1	-3%
5	CC(C)N(Cc1cn(C)nc1-c1cccc(Cl)c1)Cc1nccn1C	-2%
6	Cc1ccccc1C(=O)NC(NC(=S)Nc1ccc(S(N)(=O)=O)cc1)C(Cl)(Cl)Cl (centres undefined)	-25%
7	O=C(Nc1ccc(NC(=O)C2CCCCC2)nc1)c1cccc(F)c1	-12%
8	CCn1nnnc1-c1ccc(OC)c(S(=O)(=O)NCCc2ccccc2)c1	8%
9	C=CCn1c(SC)nnc1-c1ccc2ncccc2c1	-1%
10	COC(=O)c1cc(COC(=O)c2nc3nccc(C)n3n2)oc1C	-4%
11	Cc1cccc(N(C(=O)c2csnn2)C(C(=O)NC(C)(C)C)c2cccs2)c1 (centres undefined)	-11%
12	CN1CCN(NC(=O)/C=C/c2ccc(Br)cc2)CC1	0%
13	CSCc1ccc(C(=O)N2CCC(N3CCC(C(=O)NC(C)C)CC3)CC2)o1	7%
14	COc1ccc(-c2nc(N)n(C(=O)c3ccco3)n2)cc1	-5%
15	CCc1cc(C(=O)N2CCN(c3ccccc3)CC2)no1	-7%
16	CC1CCCC(NC(=O)Cn2cc3c(n2)CCCCC3)C1C (centres undefined)	1%
17	COc1ccc(-c2cc(-c3ccc(C)cc3)n[nH]2)c(O)c1	-3%
18	Cc1c(C(=O)N(C)C)sc2c1c(=O)n(-c1ccc(F)cc1)c(=O)n2Cc1cc(=O)n2ccccc2n1	3%
19	COc1cccc(C(=O)Nc2cccc(OCc3cc(=O)n4cc(C)ccc4n3)c2)c1	-4%
20	Cc1ccc([N+](=O)[O-])cc1N=C(c1cccc([N+](=O)[O-])c1)N1CCOCC1	-14%
21	COc1ccccc1CNc1cc(C)nc2nc(-c3ccc(C)cc3)nn12	18%
22	CC(=O)Nc1ccc(S(=O)(=O)N2CCN(CCCOc3cc(C)ccc3C)CC2)cc1	3%
23	CC(C)(C)c1ccc(C(=O)Nc2cccc3ncccc23)cc1	-23%
24	c1ccc2cc(OCCOCCOc3ccc4ccccc4c3)ccc2c1	10%
25	Cc1ccc(S(=O)(=O)N2CCN(c3nc(-c4ccc(CN5CCOCC5)s4)nc4ccccc34)CC2)cc1	-19%
26	COc1ccc(NC(=O)CCC(=O)c2ccc(F)cc2)cc1	-6%
27	COc1cc(OC)cc(C(=O)N2CCN(Cc3ccccc3[N+](=O)[O-])CC2)c1	1%
28	C=CCn1c(SCC(=O)NC)nc2sc3c(c2c1=O)CCC3	-12%
29	Cc1nnc(SCC(=O)NC2CCCC2)n1C(C)C	26%
30	CCCOc1ccc(Oc2nc(NCC(C)C)nc(N(C)C)n2)nn1	11%

# 6 entries from above, ordered by their value in VDR inhibitor, low to high:
item | structure | VDR inhibitor
6 | Cc1ccccc1C(=O)NC(NC(=S)Nc1ccc(S(N)(=O)=O)cc1)C(Cl)(Cl)Cl (centres undefined) | -25%
28 | C=CCn1c(SCC(=O)NC)nc2sc3c(c2c1=O)CCC3 | -12%
3 | COC(=O)C(C)Oc1ccc(-c2nccc(-c3ccccn3)n2)cc1 (centres undefined) | -1%
16 | CC1CCCC(NC(=O)Cn2cc3c(n2)CCCCC3)C1C (centres undefined) | 1%
22 | CC(=O)Nc1ccc(S(=O)(=O)N2CCN(CCCOc3cc(C)ccc3C)CC2)cc1 | 3%
29 | Cc1nnc(SCC(=O)NC2CCCC2)n1C(C)C | 26%

# The list continues:
cpd	smiles	VDR inhibitor
31	CCOc1ccccc1CN1CCN(C2CCN(c3ccccc3F)CC2)CC1CCO (centres undefined)	-7%
32	COc1cc2c(cc1OC)CN(C(=O)c1cccs1)CC2	10%
33	Cc1oc(-c2cccc(Cl)c2)nc1CS(=O)(=O)CC(=O)NCCN1CCCC1	-10%
34	CC/C(=N\O)c1ccc(O)c(OC)c1	1%
35	COc1ccc(/C=N/N=C2/NC(=O)C(c3ccccc3)S2)c(OC)c1 (centres undefined)	-17%
36	COc1cc(C(=O)Oc2cccc(C=O)c2)cc(OC)c1OC	3%
37	COC(=O)c1[nH]nc2c1C(=O)N(C1CCCCC1)C2=O	-9%
38	N#Cc1cccc(-c2cc(NCc3ccccc3)ncn2)c1	-15%
39	Cc1ccc(N2CCN(C(=O)c3cnn(-c4ccc(F)cc4F)c3C3CCN(C(=O)OC(C)(C)C)CC3)CC2)c(C)c1	-1%
40	COc1cccc([C@@H]2Oc3ccc(OC)cc3C(=O)[C@H]2OC(=O)Nc2ccc(OC(F)F)cc2)c1	-4%
41	Cc1cc(C(=O)Nc2cc(C)n(Cc3ccc(Cl)cc3)n2)no1	-6%
42	Cn1cnnc1SCC(=O)c1ccco1	-21%
43	O=C(CSc1nnc(C2CC2)n1CC1CCCO1)Nc1cccc(Cl)c1 (centres undefined)	29%
44	COc1ccc(CC(=O)NCC2CCCN(Cc3ccc(OC(F)(F)F)cc3)C2)cc1 (centres undefined)	-19%
45	CC(C)c1ccc(OCC(=O)NC2CC(C)(C)NC(C)(C)C2)c(Br)c1	13%
46	Cc1ccc(NC(=O)c2cccc(S(=O)(=O)N3CCCC3)c2)nc1	-5%
47	O=C(NCC1CCN(Cc2ccccc2F)CC1)Nc1ccccc1F	5%
48	COCCN1C(=O)c2ccccc2C(C(=O)NCC2CCCO2)C1c1c[nH]c2ccccc12 (centres undefined)	5%
49	Cc1ccc2nsnc2c1S(=O)(=O)Nc1ccccc1C(=O)O	-10%
50	Cc1ccc(CCNC(=O)c2cc3sccc3n2Cc2ccc(Cl)cc2)cc1	3%
51	COc1cccc(/C=N/NC(=O)C(=O)N2CCCC2)c1OC	14%
52	CCOc1cc2[nH]c(=S)n(C(C)C)c(=O)c2cc1OCC	-3%
53	CCN(CC)c1ccc(NC(=O)C2CCN(c3nnc(-n4cccc4)s3)CC2)c(C)c1	6%
54	Cc1ccc(-c2nnc(Sc3nc4ccccc4o3)c3ccccc23)cc1	2%
55	N#Cc1ccc(N2Cc3ccccc3C2=NC(=O)c2cccs2)cc1	-7%
56	CCC/C=N/Nc1nc2ccccc2s1	-13%
57	CCc1ccc(C2CC(=O)Nc3c2c(C)nn3-c2nc(C)cc(C)n2)cc1 (centres undefined)	9%
58	COCCCC1CCN(Cc2nc(Cc3ccccc3Cl)no2)CC1	2%
59	O=S(=O)(c1cc(Cl)ccc1Br)N1CCOCC1	-8%
60	CS(=O)(=O)c1ccc(Cl)c(NC(=O)C2CC(=O)N(Cc3ccccc3)C2)c1 (centres undefined)	-7%

# (listing goes on)
cpd	smiles	VDR inhibitor
61	Cc1ccc(Cc2nc3ccccc3nc2SCC(=O)Nc2ccc3c(c2)OCO3)cc1	12%
62	O=C(NCc1ccccc1)C1=C[C@@H](c2ccc(C(F)(F)F)cc2)C[C@@H](OCCCCO)O1	-16%
63	O=C(CC1CC2CCC1C2)Nc1nc(-c2ccccn2)cs1 (centres undefined)	-30%
64	COC(=O)C(CCCCNC(=O)c1ccc([N+](=O)[O-])cc1)NC(=O)c1ccc([N+](=O)[O-])cc1 (centres undefined)	-5%
65	O=C1[C@@H]2C(c3cccnc3)=NO[C@@H]2C(=O)N1c1ccc(Cl)cc1Cl	-18%
66	COc1cc(C2c3[nH]c4ccccc4c3CC3COC(=O)N32)cc(OC)c1O (centres undefined)	-8%
67	Cc1cccc(NC(=S)N(CCCN2CCOCC2)Cc2ccco2)c1	-3%
68	C#CCOCCOCCOCCNc1nc(N2CCN(C(=O)[C@H]([C@@H](C)CC)n3cc(CCCN=C(N)N)nn3)CC2)nc(N2CCN(C(=O)[C@H](Cc3ccc(O)cc3)n3cc(CCO)nn3)CC2)n1	-17%
69	CN1/C(=C\C(=O)COC(=O)CNC(=O)c2ccccc2F)C(C)(C)c2ccccc21	8%
70	CCc1cc(C(=O)N2CCN(C(=O)c3ccccc3)CC2)sc1C	4%
71	Cc1ccc(NC(=O)CSc2ncn(-c3ccccc3)n2)cc1C	-9%
72	CCOc1ccc(CNC(=O)CCCn2nc(C)c3sc4ccccc4c3c2=O)cc1	3%
73	CC(C)CCNC(=O)NC(=O)CSc1nnc(COc2ccccc2Cl)o1	18%
74	CN1C2CCC1CC(N(CCc1ccccc1)C(=O)c1ccc(Cl)cc1)C2 (centres undefined)	3%
75	CNC(=O)[C@H](Cc1c[nH]c2ccccc12)NC(=O)[C@@H](CC(=O)NO)CC(C)C	u
76	CC1CCCN(C(=S)SCC(=O)c2cc(Br)cc(Br)c2O)C1 (centres undefined)	0%
77	Cc1ccc(C)c(NC(=O)CN(C)C(=O)c2cccc(S(=O)(=O)N(C)C)c2)c1	8%
78	O=C(CCCn1c(=O)c2sccc2n(Cc2ccc(F)cc2Cl)c1=O)NCc1ccc2c(c1)OCO2	7%
79	O=C(O)/C=C/c1ccc(S(=O)(=O)N2CCN(CCN3C(=O)C4C5C=CC(C5)C4C3=O)CC2)cc1 (centres undefined)	-11%
80	Cc1cccc(C)c1Nc1nnc(SCC(=O)Nc2sccc2C#N)s1	8%
81	Cc1nn(C)c2ncc(C(N)=O)c(Oc3cccnc3)c12	-18%
82	Cc1ccc2nc(NC(=O)c3cc(=O)c4cc(Cl)ccc4o3)sc2c1	2%
83	COc1ccc(-c2nnc(SCC(=O)c3ccc([N+](=O)[O-])cc3)o2)cc1OC	-7%
84	CCCN(Cc1nnc(-c2cccs2)o1)C(=O)c1cc(S(=O)(=O)N2CCOCC2)ccc1C	-4%
85	CC(O/N=C/c1ccccc1OC(F)F)C(=O)Nc1cccc(S(=O)(=O)N2CCOCC2)c1 (centres undefined)	-2%
86	CC(NC(=O)CSc1n[nH]c(-c2ccccc2)n1)c1nc2ccccc2n1C (centres undefined)	10%
87	COc1ccc(N2CCN(C(=O)C(=O)c3cn(CC(=O)N4CCCCCC4)c4ccccc34)CC2)cc1	12%
88	Cc1ccccc1NC(=O)CCS(=O)(=O)c1ccc(Br)cc1	-13%
89	Cc1ccc2c(CC(=O)N3CCN(c4cccc(Cl)c4)CC3)coc2c1	19%
90	Cc1cc(C)cc(NS(=O)(=O)c2cc(Br)cnc2N)c1	10%

# Filtered by structure, the compounds so far with a tert-butyl group (3)
cpd	smiles	VDR inhibitor
11	Cc1cccc(N(C(=O)c2csnn2)C(C(=O)NC(C)(C)C)c2cccs2)c1 (centres undefined)	-11%
23	CC(C)(C)c1ccc(C(=O)Nc2cccc3ncccc23)cc1	-23%
39	Cc1ccc(N2CCN(C(=O)c3cnn(-c4ccc(F)cc4F)c3C3CCN(C(=O)OC(C)(C)C)CC3)CC2)c(C)c1	-1%

# Additional entries:
cpd	smiles	VDR inhibitor
91	O=C(COc1ccc(S(=O)(=O)N2CCCC2)cc1)Nc1ccc(F)cc1	5%
92	COC(=O)c1ccc(OCC(O)CN2CCN(CC(O)COc3ccc(C(=O)OC)cc3)CC2)cc1 (centres undefined)	-15%
93	N#CNC(=Nc1cccc(F)c1)SCc1cccc(F)c1	-9%
94	Oc1ccc(Br)cc1-c1nc2cnccn2c1NC1CCCC1	-14%
95	Cc1nc(SCC(=O)Nc2ccc3[nH]c(=O)[nH]c3c2)nc(C)c1C	u
96	CCCc1oc(C(=O)O)cc1CN	1%
97	Cc1cc(C)n(CC(=O)c2cccc([N+](=O)[O-])c2)n1	-1%
98	N#CCCN(Cc1ccccc1)C(=O)c1cccs1	9%
99	CC(NC(=O)c1cc2c(=O)n3ccccc3nc2n(C(C)C)c1=N)c1ccccc1 (centres undefined)	-3%
100	O=C(Nc1ccccc1)C1=C(c2ccccc2)S(=O)(=O)CCS1(=O)=O	22µM*
101	O=C(/C=C\c1ccccc1)Oc1cccc2cccnc12	-7%
102	COc1ccc(NC(=O)COc2ccccc2C#N)c(S(=O)(=O)N2CCCCC2)c1	-3%
103	Cc1ccccc1OCc1nnc(SCc2cc(=O)c3cc(F)ccc3[nH]2)n1C	8%
104	Cc1ccnc(NS(=O)(=O)c2ccc(Oc3ccccc3)cc2)c1	-2%
105	COc1cccc(OCc2cc(C(=O)N3CCN(C)C(c4ccccc4)C3)no2)c1 (centres undefined)	6%
106	CCOC(=O)C1CCN(Cc2cn3c(-c4ccc(OC)cc4)nnc3s2)CC1	1%
107	COc1ccc(C(=O)N2CCN(c3cnn(-c4ccccc4)c(=O)c3Cl)CC2)cc1	22%
108	COc1cccc(CN2C(=O)C3(SCC(=O)N3c3ccc(C(C)C)cc3)c3ccccc32)c1 (centres undefined)	-5%
109	COC(=O)C1=C[C@@H](C(=O)OC)C2C3=C(C(=O)C24CCCCC4)[C@H](C)n2c(=O)n(-c4ccccc4)c(=O)n2[C@@H]3C1 (some centres undefined)	11%&-13%
110	O=C(CC(=O)Nc1ccc(F)cc1F)Nc1ccc(F)cc1F	-11%
111	CCc1nc2c(cnn2-c2ccc(F)cc2)c(=O)n1-c1ccc(N2CCC(C)CC2)cc1	4%
112	O=C(CS(=O)c1ccc(C(F)(F)F)cc1[N+](=O)[O-])Oc1ccc(Cl)cc1 (centres undefined)	50µM*
113	Cc1ccc2nc(-c3ccccc3)cc(C(=O)N3CCN(c4ccccc4O)CC3)c2c1	3%
114	COc1cc(/C=C/C(=O)O)ccc1OCc1ccccc1C#N	-11%
115	Cc1ccc(CN2C(=O)c3ccccc3NC2c2ccccn2)cc1 (centres undefined)	-9%
116	C/C=C/c1ccc(OCC(=O)N(CCOC)c2c(N)n(CCCC)c(=O)[nH]c2=O)c(OC)c1	4%
117	CCNC(=O)/C(C#N)=C/c1c(N2CCN(c3ccccc3)CC2)nc2c(C)cccn2c1=O	-13%
118	Cc1cccc(NC(=O)c2ccc3c(c2)CCN3S(C)(=O)=O)c1	7%

# Compound activity as filed in PubChem BioAssay.
